Sa growth 42C: S. aureus growth inhibition. AID 720641. relative growth, % (test concentration not listed). S. aureus RN4220 growth, OD600, 20 h, 42 °C; active compounds read low. 170,000 tested, 0.53% active;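 active means growth at 42 °C up to 50% and 20 or more points under that at 30 °C, or under 10% at both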;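 further: 300 nL library stock went into each well; scaled to the means of positive and negative controls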
GIV Gai3 FP: blocks GIV peptide binding to rat Galpha-i3; 210,000 tested, 0.42% active; P08753; Galpha-i3/FITC-GIV peptide fluorescence polarization, 90 min; active compounds read low; scaled: aluminum fluoride 0%, vehicle 100%; percent of control (FP), % (concentration not given with the values);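 active means replicate mean at 85% of control or lower, very high polarization wells dropped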;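 further: wells of about 15 µL received 100 nL stock; the first replicate is given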
Target sequence (P08753 whole entry, looked up): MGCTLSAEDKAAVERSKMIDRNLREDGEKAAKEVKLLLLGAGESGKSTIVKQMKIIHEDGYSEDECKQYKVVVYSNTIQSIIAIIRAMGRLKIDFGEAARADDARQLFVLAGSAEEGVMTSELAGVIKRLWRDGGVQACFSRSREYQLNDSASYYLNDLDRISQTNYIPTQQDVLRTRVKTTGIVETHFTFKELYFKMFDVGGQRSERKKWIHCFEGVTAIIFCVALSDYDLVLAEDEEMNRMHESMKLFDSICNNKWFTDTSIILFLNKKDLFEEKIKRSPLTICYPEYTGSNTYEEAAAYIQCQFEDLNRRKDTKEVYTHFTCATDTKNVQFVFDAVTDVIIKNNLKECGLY
HCMV NEC inh: cytomegalovirus nuclear egress complex inhibition; HTRF UL50-UL53 interaction, normalized percent inhibition; inhibition, % (concentration not given with the values); 190,000 tested, 0.15% active; AID 1918969;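 active means both replicates at 50% or more, plus weaker picks with an unusually low signal ratio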;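 further: stock transfer was 100 nL into about 20 µL; 0% = negative control wells and 100% = wells with untagged competitor protein; inactives centre near -12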
Sa growth 42C second temp: further read-out of Sa growth 42C, marked with its call; relative growth, %; measured here: growth at 30 °C;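 optical density after 20 h as mean of two plates; 100% = untreated growth and lower means inhibition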
Numbers without * were called inactive; / = not tested or not shown; & = joins results of further samples.

SMILES	Sa growth 42C	Sa growth 42C second temp	GIV Gai3 FP	HCMV NEC inh
CCNC(=O)COc1ccc(OCc2ccccc2)cc1	109	102	102	1
CCOC(=O)c1c(Nc2nc3ccccc3nc2N2CCN(C(=O)OCC)CC2)sc(C)c1C	95	92	/	1
O=C(COC(=O)C1CC2CCCC(C1)C2=O)NC1CCS(=O)(=O)C1 (stereo not given)	96	92	/	-2
NCCC(c1ccccc1)c1ccccc1	117	89	/	5
C/C(=N\N)c1ccc2[nH]c3c(c2c1)CCC/C3=N\N	92	45	111	-5
CCSc1ncnc2c(-c3ccc(OC)cc3)nsc12	102	91	98	5
CC1(C)CC(NC(=O)/C=C/c2ccc(F)cc2)CC(C)(C)N1	89	95	/	3
CC(C)(CO)NC(=O)CSc1ccc(C(F)(F)F)cc1Cl	106	99	/	2
Cc1ccccc1C(=O)OCCN1C(=O)c2cccc3c(N4CCOCC4)ccc(c23)C1=O	/	/	157	-23
CC(C)(C)c1ccc(OCCCn2c(=O)sc3ccccc32)cc1	77	80	98	/
O=C(Cn1cnc2c(cnn2-c2ccc(F)cc2)c1=O)NC1CCCC1	97	88	102	-4
O=C(Cc1n[nH]c(=O)[nH]c1=O)N/N=C/c1ccccc1	99	94	109	-7
CCCCN(C)CCCNC(=O)C1CCN(S(=O)(=O)CCC)CC1	96	92	97	/
Cc1c(Cl)cccc1NC(=O)CSc1ccc(-c2ccccn2)nn1	79	77	108	/
NCC1NCCc2ccccc21 (stereo not given)	68	92	98	-16
O=c1c(N2CCCCC2)csc2ccccc12	101	84	114&99	-46&-40
Cc1nc2ccccc2n1CC(=O)OCC(=O)N1c2ccccc2CC1C (stereo not given)	102	91	/	-1
Cc1nn(-c2ccccc2)nc1-c1nnc(-c2cccc3ccccc23)o1	103	97	106	15
CC(C)(C)C(=O)N1CCCC1c1ccc(Cl)cc1 (stereo not given)	/	/	104	-28
COc1ccc(NC(=O)c2ccc3c(c2)N(Cc2cccc(Cl)c2)C(=O)c2ccccc2S3=O)cc1Cl (stereo not given)	105	101	111	/
CN1CCN(c2ccc(-c3ccc(NS(=O)(=O)c4ccc(F)cc4F)cc3)nn2)CC1	/	/	99	-45
Cc1ccc(S(=O)(=O)CC2CSc3nc4ccccc4n32)cc1 (stereo not given)	90	91	99	-1
O=C(c1ccccc1)c1cnc2cc3c(cc2c1S(=O)(=O)c1ccc(F)cc1)OCCO3	/	/	99	-7
COc1ccc(C2=NN(C(C)=O)C(c3cc(OC)ccc3OC)C2)cc1 (stereo not given)	/	/	107	-8
Cc1cc(C)cc(NC(=O)Nc2ccc3c(c2)N(C)C(=O)CS3)c1	/	/	107	2
CCOc1ccc(S(=O)(=O)N2CCN(CN3C(=O)CC4(CCCC4)C3=O)CC2)cc1	108	97	/	-7
CC(Sc1nnc2ccc3ccccc3n12)C(=O)Nc1ccc(Cl)cc1 (stereo not given)	93	80	104&99	-28&-6
CN=c1scc(-c2ccc(C)c(C)c2)n1/N=C(\C)c1cccnc1	68	76	/	-24
COc1cc(OC)cc(/C(N)=N/O)c1	96	102	115	-2
CNC(=O)c1c(NC(=O)/C=C/c2cccs2)sc(C)c1C	106	94	100	-41
COc1ccc(Oc2ccc(C#N)cc2)cc1	/	/	116	-6
Cc1ccc(NC(=O)CCn2nc(C)cc2C)c(C)c1	68	90	106	/
CCOC(=O)c1cc(=O)n2[nH]c(-c3ccc(C)cc3)cc2n1	120	99	102	-15
O=C(Nc1nc2nc(-c3ccccc3)cc(=O)n2[nH]1)c1ccccc1	88	83	96	-13
Cc1csc(NC(=O)c2cccs2)n1	106	77	/	-32
CCC(C)n1c(SCC(=O)Nc2ccccc2C(=O)OC)nc2ccsc2c1=O (stereo not given)	87	93	102	/
COc1ccc(NC(=O)C2CC(=O)N(c3cccc(-c4noc(C)n4)c3)C2)cc1OC (stereo not given)	/	/	100	-22
Cc1ccc(-c2cc(-c3nc(-c4ccccc4Br)no3)[nH]n2)cc1C	/	/	124	-7
Cc1ccc(CNC(=O)CCn2nc(C)c(S(=O)(=O)N3CCCC3)c2C)cc1	115	88	108	-17
Cc1cc(C)n(-c2nc3ccccc3nc2Nc2cccc(C(=O)NCCc3ccccc3)c2)n1	108	93	104	-8
CCOc1ccc(N2C(=O)/C(=C/c3cc(Cl)c(OCC(=O)O)c(Cl)c3)C(=O)NC2=S)cc1	/	/	93	-26
COc1ccc2nc(NC(=O)c3cc(=O)c4cc(C)cc(C)c4o3)sc2c1	105	83	103	-23
COc1ccc(CN(Cc2cccn2C)S(=O)(=O)c2ccccc2)cc1	112	88	104	-32
C=CCN1C(=O)/C(=c2\sc3n(c2=O)C(c2cccs2)C(C(=O)OC)=C(C)N=3)c2ccccc21 (stereo not given)	/	/	109	-21
CC1CCc2ccc(F)cc2N1S(=O)(=O)c1ccc(Cl)s1 (stereo not given)	97	99	112	9
CC1=C(C(N)=O)C(c2ccccc2F)NC(=O)N1 (stereo not given)	99	102	103	12
NC(=S)Cc1ccc(CC(N)=S)o1	111	74	97	-25
CN(C)Cc1nc2c([nH]1)c(=O)[nH]c(=O)n2C	95	87	101	-21
COC(=O)c1ccc(C)c(NC(=O)C(NC(C)=O)C(C)C)c1 (stereo not given)	121	93	/	12
O=C1CCCc2nc(N3CCc4ccccc43)ncc21	/	/	101	-24
Cc1c(C(=O)N2CCNCC2)oc2ccccc12	75	84	97	/
CCOC(=O)c1nc(-c2ccc3c(c2)OCO3)[nH]c1C	110	95	112	-7
CCCCOC(=O)c1ccc(NC(=O)c2cnc3ccc(C)cn3c2=O)cc1	108	90	100	-18
O=C(NNc1ncnc2c1cnn2-c1ccccc1)c1ccccc1	117	96	108	/
CCOC(=O)C1=C(C)Nc2ncnn2C1c1ccccn1 (stereo not given)	/	/	104	5
Cc1ccc2c(c1)N(CC(=O)N(C)Cc1ccccc1)C(=O)CO2	103	87	104	5
O=c1c2cn[nH]c2nc(SCc2cccc(Br)c2)n1-c1ccc(Cl)cc1	118	44	110	/
CC(C)(C)C1(C)OC(=O)C(=Cc2ccc(C(=O)O)cc2)C(=O)O1 (stereo not given)	86	88	93	-4
COc1ccc(C(=O)N(c2ccccn2)c2ccccn2)cc1OC	121	99	/	-14
O=C(CN1CC(=O)N2CCCCC2C1=O)Nc1ccc(C(=O)NCc2cccc(Cl)c2)cc1 (stereo not given)	/	/	104	-6

Remaining list, next part:
SMILES	Sa growth 42C	Sa growth 42C second temp	GIV Gai3 FP	HCMV NEC inh
Cc1c(C(=O)Nc2ccc(Br)cc2F)sc2ncnc(N(C)C3CCCCC3)c12	106	87	105	/
CCC(=O)Nc1ccccc1C(=O)Nc1ccccc1	111	82	/	-12
O=C(CSc1nc2c(c(=O)[nH]1)CN(Cc1ccc(Cl)cc1)CC2)NCc1ccccc1	91	77	102	-23
Cc1cccn2cc(-c3cccc(S(=O)(=O)N4CCOCC4)c3)nc12	121	100	112	-12
Cc1ccc(Cl)cc1-n1nnc(-c2nc(-c3ccc4c(c3)OCO4)no2)c1C	90	101	107	/
CCOC(=O)c1c(C=O)oc2c(C)cc(OC(=O)c3ccccc3C)c(Br)c12	/	/	100	-3
O=C(NCc1ccccc1)c1ccc2c(c1)N(Cc1cccc(Cl)c1)C(=O)c1ccccc1S2(=O)=O	103	95	99	/
O=C(Cn1ncc2ccc(Cl)cc21)NC1CCCC1	97	87	105	/
CCc1ccc(Cn2c(=O)c3sccc3n3c(=O)[nH]nc23)cc1	/	/	105	-26
COc1ccccc1C(CNc1nc(C(F)(F)F)nc2ccccc12)N(C)C (stereo not given)	76	94	/	-31
CCN(Cc1ccccc1)C(=O)C1CCC(CNS(=O)(=O)c2ccc3c(c2)CCCC(=O)N3)CC1 (stereo not given)	112	99	103	/
COc1ccccc1NNC(=O)c1cccnc1Oc1ccccc1	88	84	104	-59
CC(C)Cc1nc2ccccc2[nH]1	98	78	102	/
COc1ccc(Nc2cc(C(=O)NC3CCCC3)c3ccccc3n2)c(OC)c1	96	84	103	-16
CCCCCn1cnc2c1c(=O)[nH]c(=O)n2C	99	90	104	-10
COc1ccc(CSCC(=O)NC2CC3CCC(C2)N3C)cc1 (stereo not given)	101	85	101	-17
CCOc1ccccc1NC(=O)CN1C(=O)CC(c2ccc(OC)c(OC)c2)Sc2ccccc21 (stereo not given)	99	59	103	-32
CNC(=O)CSc1nnc(C(F)(F)F)n1N	98	94	/	8
Cc1ccc(Cl)cc1N1CCN(C(=O)C2CCCN(S(=O)(=O)c3cnc[nH]3)C2)CC1 (stereo not given)	106	76	100	0
CN(C(=O)COC(=O)c1ccccc1C(=O)N1CCN(c2ccccc2)CC1)c1ccccc1	94	97	/	-16
Cc1ccccc1-n1cc(-c2ccc(Br)cc2)nc1SCC(N)=O	83	69	99	-202
Cc1nc(CSCc2ccc(Cl)cc2Cl)cs1	107	90	107	-7
O=S(=O)(c1ccc(Cl)cc1)N1CCOCC1	82	93	/	5
CC1CCN(c2ccc(NC(=O)c3cccc(Cl)c3)cc2C(=O)O)CC1	101	83	100	/
O=C(O)C1CCN(c2nc3ncccc3nc2-c2ccccc2)CC1	85	81	108	/
COc1cccc(CNC(=O)Nc2ccc3c(c2)N(C)C(=O)c2ccccc2S3)c1	104	94	98	6
O=C(O)c1cnc(SCC(=O)N(C2CCCCC2)C2CCS(=O)(=O)C2)n1-c1ccc(F)cc1 (stereo not given)	97	85	/	-21
O=C(O)CCCC(=O)Nc1ccccc1N1CCOCC1	121	92	/	8
Cc1ccc(CNC(=O)c2cc3sccc3n2Cc2ccc(Cl)cc2)cc1	113	86	100	-5
CCc1ccccc1NC(=S)N1CCC(N(C)CCN2CCOCC2)CC1	122	87	105	/
CC(C)(C)c1ccc(OC/C(N)=N/O)cc1	116	104	105	-1
O=C(NCCCO)C(=O)Nc1c2c(nn1-c1ccccc1)CSC2	110	85	104	/
COc1cc(C2CC(=O)C=C(O)C2)cc(OC)c1OC (stereo not given)	93	88	106	-21
CC(=O)N1N=C(c2ccc(C)cc2)CC1c1cn(-c2ccccc2)nc1-c1cccs1 (stereo not given)	82	101	110	3
CC(C)(C)NC(=O)c1oc2ccccc2c1NC(=O)c1ccccc1F	93	91	101	/
CCC(=O)Nc1ccccc1-c1nnc(SCc2ccccc2)[nH]c1=O	104	97	101	-8
N/C(CS(=O)(=O)Cc1ccco1)=N\O	113	84	103	-5
COc1ccc(N(CCC#N)S(=O)(=O)c2ccc(Cl)cc2)cc1	106	90	101	-12
COc1ccc(C2=NOC(C(=O)NC(C)C)C2)cc1 (stereo not given)	92	80	102	/
CCS(=O)(=O)c1c(S(=O)(=O)CC)c2cc(C(C)(C)C)ccn2c1C(=O)c1ccc(F)cc1	99	96	101	-14
Cc1cc(NC(=O)N2CCC(CN3CCC(C)CC3)CC2)ccc1Br	88	89	98	/
COc1ccc(S(=O)(=O)N(CCc2ccccc2)CC(=O)NCc2ccccc2)cc1OC	108	93	102	-23
Cn1c(=O)c2c(c3ccccc31)OC(=O)CC2c1cccc(F)c1 (stereo not given)	97	96	107	14
CC(C)Oc1ccc(NC(=O)C2COc3ccccc3O2)cc1 (stereo not given)	119	81	101	-5
CCOc1ccc(C2C(C(=O)Nc3ccccc3)=C(C)Nc3nc(-c4ccccc4)nn32)cc1OC (stereo not given)	112	85	100	-25
Cc1ccc(S(=O)(=O)NC2CCCC2)cc1	106	74	103	2
CCOc1ccc(CCNC(=O)c2cc3c(s2)-c2ccccc2OC3)cc1OCC	73	86	94	1
COc1ccc(-c2nc(OCC(=O)Nc3cccc(OC)c3)c3c4c(sc3n2)CCCC4)cc1	/	/	103	-15

Compound activity from PubChem.
